Menin-MLL FL inh – menin-MLL binding inhibition, fluorescein peptide; Fluorescence polarization, fluorescein-MLL peptide displacement from menin; FP activity change, % at 61.4 µM; 290,000 tested, under 10 active; AID 1766; inconclusive = falling polarisation curve, or a change in total fluorescence; inactive = total fluorescence flat and polarisation flat or rising; no compound was filed as active; the % refers to the polarisation; negative = inhibition;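 further: % of control where 0% means no effect; inhibitors lower the polarisation; unlabelled MLL peptide was the positive control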
ClpP mod – qHTS Assay for Activators of ClpP. purified B. subtilis ClpP, FRET peptide cleavage, 20 min. AID 651965, 2013. Potency, µM (doses to about 57.5 µM), without a hit: at the top dose activity change, negative = active. 340,000 compounds, 1.9% hits; active = well fitted falling curve with a large enough effect; inconclusive = small, poorly fitted or top-dose-only effect; inactive = no such curve, though single readings can be large or run the other way; further: potency means the concentration at half of the fitted maximal effect; the source files actives as falling curves though it sought activators and does not explain the sign; nearly all actives have a fitted effect of over 65% in size; many hits overshoot -100%
Target sequence (P80244 whole entry, looked up): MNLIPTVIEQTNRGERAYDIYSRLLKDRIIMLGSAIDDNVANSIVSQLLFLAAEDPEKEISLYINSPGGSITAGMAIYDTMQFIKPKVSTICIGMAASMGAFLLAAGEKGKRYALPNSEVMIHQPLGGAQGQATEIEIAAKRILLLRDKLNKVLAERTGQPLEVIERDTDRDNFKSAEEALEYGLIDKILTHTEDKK
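Buffer: 100 mM Tris/HCl pH8, 100 mM KCl, 0.05% low protease BSA, 2.5% glycerol, 0.01% Tween-20. ClpP 10 microg/mL final; 20 min RT; delta FRET normalized to ADEP and DMSO controls.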
PINK1 modulator – PINK1 expression modulation; 410,000 compounds, 0.2% hits; Potency, µM (top dose mostly 76.6 µM), for inactives: at the highest dose activation (PINK1 increase), actives largely listed as activators; AID 624263; PINK1 immunofluorescence, high-content cytometry, 24 h; active = well fitted activation curve with a large enough effect; inconclusive = small, poorly fitted or top-dose-only effect; inactive = flat fitted curve, though single readings scatter; cell line not stated here;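 further: potency means the concentration at half of the fitted maximal effect; % of control where 0% means no effect; nearly all actives have a fitted effect of over 65% in size; a mitochondrial uncoupler was the plate control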
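Readout is PINK1 immunofluorescence, quantified alongside mitochondrial, cell and nuclear markers by laser-scanning microplate cytometry. Cells from a stable line were exposed to compound titrations (5 concentrations) for 24 hours, with CCCP controls.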
gsp agonist – agonists of gsp mutant (McCune-Albright syndrome); gsp mutant cells, cAMP HTRF, 30 min; control for the full effect not named in the record; Potency, µM (doses to about 76.9 µM), inactives show top-dose activation (cAMP increase), most hits filed as activators; 340,000 compounds, 0.13% hits; AID 624287; active = well fitted activation curve with a large enough effect; inconclusive = small, poorly fitted or top-dose-only effect, or another doubt; inactive = no such curve, though single readings can be large or run the other way; cell line not stated here;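 further: phosphodiesterase inhibitor Ro 20-1724 added with compounds to block cAMP breakdown; potency means the concentration at half of the fitted maximal effect; nearly all actives have a fitted effect of over 60% in size; about a fifth of the inactives were tested at one dose only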
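Cells in DMEM/10% FBS with G418 were pretreated with compounds in DMSO plus […] (300 uM stock) for 30 min at 37C. cAMP was measured by HTRF (cAMP-d2 plus anti-cAMP antibody-K) after 30 min at room temperature.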
D2 agonist – agonists of human D2 dopamine receptor (beta-arrestin). DiscoveRx PathHunter D2 beta-arrestin, luminescence, 90 min; 100% = 57 uM dopamine signal. activation, % (test concentration not listed). 360,000 compounds, 0.084% hits. AID 624465; in the data active = activation above about 40%; inconclusive = about 15% to 40%; inactive = below about 15%; further: compound concentration not given in the record; the text of the record calls up to 30% inactive
Target sequence (P14416 whole entry, looked up): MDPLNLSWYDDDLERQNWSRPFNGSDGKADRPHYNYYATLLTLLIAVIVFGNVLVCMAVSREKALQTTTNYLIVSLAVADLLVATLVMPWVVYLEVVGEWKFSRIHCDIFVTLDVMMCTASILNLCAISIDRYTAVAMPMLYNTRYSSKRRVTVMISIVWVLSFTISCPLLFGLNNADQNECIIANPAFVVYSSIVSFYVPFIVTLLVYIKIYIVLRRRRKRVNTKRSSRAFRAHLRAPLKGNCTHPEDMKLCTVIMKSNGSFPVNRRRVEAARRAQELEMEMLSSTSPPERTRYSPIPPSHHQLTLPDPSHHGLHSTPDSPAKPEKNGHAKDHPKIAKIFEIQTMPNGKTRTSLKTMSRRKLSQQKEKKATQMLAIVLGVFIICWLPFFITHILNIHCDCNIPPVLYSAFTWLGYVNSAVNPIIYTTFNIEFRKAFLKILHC
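Agonist mode: compounds alone added to overnight-plated D2 PathHunter cells for 90 min at 37 C, with 57 uM final dopamine (EC100) defining full response. Beta-arrestin recruitment detected by chemiluminescent reagent, read after 1 h at ambient temperature.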
Sfp PPTase inh – inhibitors of Bacillus subtilis Sfp phosphopantetheinyl transferase; Q9F4F7; Biochemical Sfp PPTase activity, qHTS; Potency, µM, inactives show max response, negative = inhibition, actives largely listed as inhibitors; 310,000 compounds, 3.5% hits; active means well fitted inhibition curve with a large enough effect; inconclusive means small, poorly fitted or top-dose-only effect, or another doubt; inactive means no such curve, though single readings can be large or run the other way;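 further: the enzyme is Sfp with the accession as filed and its product quenches rhodamine fluorescence; potency means the concentration at half of the fitted maximal effect; 0% = enzyme reaction without inhibitor and -100% = no enzyme wells; top concentration of the series not given in the record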
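Fluorescence-quenching assay: 15 nM Sfp-PPTase preincubated 15 min at room temperature with compound, then 5 uM rhodamine-CoA and 12.5 uM BHQ-2-labelled YbbR peptide added. Fluorescence (ex 525/em 598 nm) read at start and after 30 min; difference gives rate.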
gsp antagonist – antagonists of gsp mutant (McCune-Albright syndrome) | gsp-mutant cells, cAMP HTRF, 30 min; control for the full effect not named in the record | Potency, µM (highest dose often 76.9 µM), inactives show at the top dose activity change, negative = inhibition, most hits filed as inhibitors | 340,000 compounds, 0.4% hits | AID 624288; active = falling curve of any shape with a large fitted effect; inconclusive = falling curve, mostly with a smaller effect; inactive = flat or rising curve; cell line not stated here;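 further: intracellular cAMP measured with PDE inhibitor Ro 20-1724 present during compound exposure; potency means the concentration at half of the fitted maximal effect; on the % scale 0 is the no-effect control and ±100 the full control effect; nearly all actives have a fitted effect of over 65% in size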
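HTRF cAMP read-out (cAMP-d2 plus anti-cAMP antibody-K in lysis buffer, 30 min RT). Before lysis, cells are exposed to compounds with […] for 30 min at 37C in DPBS containing Ca/Mg, BSA and Tween 20.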
* marks the source's active call; other numbers are inactive results; ? = inconclusive; . = no result given; & = joins results of further samples; [ ] = dose if it differs, or a comment. This is a random part of the collection; about 5.1% have a hit in one of these screens.

SMILES	Menin-MLL FL inh	ClpP mod	PINK1 modulator	gsp agonist	D2 agonist	Sfp PPTase inh	gsp antagonist
CCN(CC)C(=O)CSc1nnc2nnc3cc(OC)ccc3n12	?	.	-0.7%	1%[15.4 µM]	1.3	2%	1%
Cc1cnc(CN(C)C(=O)c2ccc3oc(Cc4ccc(Cl)cc4)nc3c2)[nH]1	1.8	2.1%	2.6%	-11%	-5.1	4%	-2%
CC(C)[C@H](NC(=O)c1ccccc1)C(=O)O	-0.5	.	-0.4%	-7%[15.4 µM]	-7.2	27%	-1%
CCOC(=O)C1=C(CN2CCN(C(=O)c3ccco3)CC2)NC(=O)NC1c1ccccc1 (centres undefined)	.	-0.3%	0.4%	0%	4.8	2%	1%
CCC(=O)c1ccc(OCC(=O)OCC(=O)c2c(N)n(C)c(=O)n(C)c2=O)cc1	.	-1.3%	-0.5%	3%	-4.3	.	-6%
COc1ccc(NC(=O)COc2coc(CN3CCc4ccccc4C3)cc2=O)cc1	.	-0.8%	0.5%	-1%[15.4 µM]	5.1	.	-2%
CCC(C(=O)NCCc1ccccc1)c1ccccc1 (centres undefined)	-8.6	1.5%	-0.6%	-7%	-2.0	10%	1%
COc1cc(OC)c2ccc(=O)oc2c1C(CCN1CCCC(C)C1)c1ccc(N(C)C)cc1 (centres undefined)	1.2&2.0	-3.6%	-0.6%	.	-1.5	3%&0%	2%
CCOC(=O)C1CCCN(C(=O)/C=C/c2ccc(OC)cc2)C1 (centres undefined)	0.5	-2.4%	-1.2%	-115%[inhibitor]	-4.9	5%	-5%
C=CCn1c(SCC(=O)Nc2cccc3ccccc23)nnc1-c1cnccn1	-1.3	-2.3%	3.6%	-11%	-1.4	13%	12%
Cc1ccc(F)cc1NC(=O)C1C2CCC(O2)C1C(=O)O (centres undefined)	-0.5	-1.2%	1.7%	-32%[inhibitor]	6.1	7%	4%
CCOC(=O)C1(C)CCCN(C(=O)c2cccc(Cl)c2)C1 (centres undefined)	.	2.4%	0.0%	.	-6.1	.	.
NS(=O)(=O)c1ccc(NC(=S)Nc2cc(Cl)c(Cl)cc2Cl)cc1	4.0	1.8%	17%	-3%	-2.6	-15%	8%
CC(C)CC(C)N1CCC(n2nccc2NC(=O)CCc2ccccc2)CC1 (centres undefined)	0.5	-0.1%	-0.7%	19%	-7.4	3%	3%
C/C=C1\NC(=O)[C@H](C)NC(=O)[C@@H](NC(=O)[C@H](Cc2ccc(O)cc2)NC(=O)[C@@H](NC(=O)/C(C)=C/C)C(C)C)[C@@H](C)OC(=O)[C@H](CCCc2ccc(O)cc2)NC(=O)[C@@H](CCC(=O)OC)NC1=O	.	2.8%	1.1%	.	4.4	.	.
c1ccc2sc(NCC3CCCO3)nc2c1 (centres undefined)	-2.3	.	-2.6%	-23%	3.5	22%	3%
O=C(NCc1ccccn1)Nc1cccc(Cl)c1	-1.6	-1.4%	0.3%[38.3 µM]	-13%	2.5	6%	4%
CN1CCC(N(C)C(=O)c2sc3cc(F)ccc3c2Cl)CC1	0.4	.	0.8%	-5%[15.4 µM]	-3.3	-3%	6%
CCOc1ccc(NC(=O)CN(C)C(=O)c2c(-c3ccccc3)noc2C)cc1OCC	.	-1.9%	3.0%	16%	-0.9	.	-8%
COc1ccc(C(=O)Oc2cccc3cccnc23)cc1[N+](=O)[O-]	5.3	.	0.3%	-2%[15.4 µM]	-2.4	-17%	-3%
CCCc1cc(=O)[nH]c(SCC(=O)c2ccc3c(c2)NC(=O)CO3)n1	1.2	.	0.0%	-15%[15.4 µM]	-3.7	-16%	-4%
CC1(C)CC2CC(C)(CN2C(=S)Nc2ccccc2)C1 (centres undefined)	2.6	-0.3%	-1.7%	-1%[15.4 µM]	2.7	9%	7%
O=C1CCC(C(=O)OCc2c(Cl)cccc2Cl)N1 (centres undefined)	2.7	0.1%	-2.0%[38.3 µM]	11%	-3.6	17%	6%
CN1CCCC2(CCN(S(=O)(=O)c3ccccc3)CC2)C1	-5.9	.	-1.0%	.	.	16%	.
O=C(NNC1=C(C(=O)C(F)(F)F)CCC1)c1ccc(Cl)cc1	4.6	1.3%	11%[38.3 µM]	3%	-3.0	20%	-29%
O=C(COC(=O)c1ccc(F)c(S(=O)(=O)N2CCOCC2)c1)NCc1ccco1	.	0.9%	-0.6%	-18%[15.4 µM]	-2.7	25%	-15%
COc1ccc(-c2cc(C(=O)NCCN3CCOCC3)c3ccccc3n2)c(OC)c1	-1.9	-3.3%	2.0%[38.3 µM]	1%	-1.6	7%	1%
COc1ccc(CC(=O)NNS(=O)(=O)c2ccccc2[N+](=O)[O-])cc1	-12	.	-1.1%	12%[15.4 µM]	-1.3	9%	6%
O=C1N/C(=N\S(=O)(=O)Cc2ccccc2)S/C1=C/c1cc([N+](=O)[O-])ccc1O	?	2.3%	-0.3%	?	-9.0	28µM*	11%
CSc1ccc(C2CC(=O)Nc3c2c(=O)n(C)c(=O)n3C)cc1 (centres undefined)	-0.8	-8.1%	1.5%	?	-3.7	15%	24%
CCCC(=O)N(CCN(C(=O)CCC)c1ccccc1)c1ccccc1	-4.9	6.4%	-1.6%[38.3 µM]	-4%	-0.5	14%	-13%
O=C(CSc1n[nH]c(=O)n1C1CC1)Nc1ccccc1	.	0.5%	-0.8%	21%	1.3	8%	4%
CC(C)c1ccc(NC2=CC(=O)CC(C)(C)C2)cc1	0.1	-0.9%	-0.1%	0%	3.4	6%	-7%
c1ccc2c(c1)CCc1snnc1-2	1.9	0.3%	-0.4%	-11%	-5.7	26%	-11%
CCOc1ncccc1C(=O)OCC(=O)NC1CCCCCC1	.	.	-2.9%	43%[15.4 µM]	0.4	.	0%
COc1cc(C2c3c([nH]c(=O)[nH]c3=O)Nc3ccc4ccccc4c32)ccc1O (centres undefined)	-3.8	.	-2.1%	3%	5.0	?	-7%
CCc1cc(C(=O)O)c(NC(=O)c2cc(OC)c(OC)c(OC)c2)s1	1.4	.	2.7%	?	3.3	3%	-13%
CC1CCCCC1N1CCN(C(=O)c2cccc(F)c2)CC1 (centres undefined)	-3.4	-0.2%	0.7%	11%	-2.9	-21%	-13%
CCOc1ccc(CNC(=O)CCCN2C(=O)C(c3ccccc3)Oc3cccnc32)cc1 (centres undefined)	-1.3	1.9%	2.6%	-27%	1.7	5%	11%
CC1C(c2ccccc2)C(C#N)(C#N)C2(C#N)C(=O)NC1(N)C2C (centres undefined)	2.4	-0.5%	-0.8%	4%	-7.8	15%	5%
CCOC(=O)Nc1ccc2c(c1)N(C(=O)CCN(CC)CC)c1ccccc1CC2	0.4	0.1%	-0.7%	-43%[inhibitor]	1.3	9%	10%
CCc1ccc2nc(N3C(=O)C(O)=C(C(=O)c4ccco4)C3c3cccs3)sc2c1 (centres undefined)	?	-15%	-2.2%	27%	-0.5	-16%	-28%
Cc1cc(N2C(=O)C(O)=C(C(=O)c3ccco3)C2c2ccccc2F)no1 (centres undefined)	.	-4.6%	0.1%	?	-0.2	1%	-1%
COc1ccccc1C(=O)Nc1ccc(N2CCN(C(C)=O)CC2)cc1	0.2	.	3.3%	-6%	-3.4	20%	-10%
CC(=O)NCCNC(=O)c1cccc(NS(=O)(=O)c2ccc3c(c2)OCCO3)c1	.	.	5.7%	-6%[15.4 µM]	-2.9	.	1%
Cc1ccc(-n2c(C)cc(/C=N/NC(=O)CC3(C)OCCO3)c2C)cc1	1.0	-2.2%	1.2%	-16%	-3.0	2%	11%
O=S(=O)(Nc1ccc2nc(C(F)(F)F)[nH]c2c1)c1ccccc1	6.5	-0.6%	.	3%	-2.2	10%	-4%
CN(C)CCCOC(=O)N1c2ccccc2C=Cc2ccccc21	-9.4	-2.6%	-1.3%	-8%	4.0	-6%	10%
N#Cc1cnn(-c2cccc(Cl)c2)c1-n1cccc1	-1.8	.	2.1%	32%[15.4 µM]	2.9	18%	-6%
Cc1nc(SCC(=O)N2CCCCCC2)[nH]c(=O)c1C	.	5.4%	0.7%	0%[15.4 µM]	2.1	.	12%
Cc1cc(=O)[nH]c(SCC(=O)Nc2nc3c(s2)CCCC3)n1	-2.5	1.0%	0.0%	0%	0.2	13%	?
COC(=O)c1ccccc1NC=C1C(=O)OC2(CCCCC2)OC1=O	5.9	-2.4%	-1.4%	-23%	-1.2	2%	1%
N#C/C(=C\c1cn(CC(=O)O)c2ccccc12)C(=O)NCc1ccccc1	?	-4.4%	1.0%	?	-0.8	3%	4%
CCOC(=O)/C(C#N)=C1/C=CN(Cc2ccccc2)C=N1	2.8	-23%	-15%[38.3 µM]	1%	-3.0	5%	12%
CC(C)(C)OC(=O)N1CCN(C(=O)c2ncn3c2c(=O)[nH]c2ccccc23)CC1	.	-5.5%	-0.2%	?	-1.7	.	.
O=C(NNC(=O)c1ccc2ccccc2c1O)NC1CCCCC1	-2.0	3.6%	-0.8%	21%	-0.2	21%	9%
COc1ccccc1C(=O)Nc1ccc(C)c(S(=O)(=O)N2CCCCC2)c1	.	1.0%	1.7%	-2%[15.4 µM]	-2.0	.	-16%
CN(c1ccccc1C(=O)Nc1cccc(Cl)c1Cl)S(C)(=O)=O	1.6	-1.0%	-0.2%	-1%	-2.1	13%	-5%
CCCN(C(=O)c1cc(S(=O)(=O)N2CCCCC2)ccc1Cl)C1CCS(=O)(=O)C1 (centres undefined)	1.7	-3.5%	-0.7%	10%	-3.2	-6%	-4%
O=C(Nc1cccc(Cl)c1N1CCCC1)c1cc2ccccc2o1	2.7	?	16%	-1%	-5.1	?	1%
Cc1cccc(Nc2nc3c(S(=O)(=O)c4ccccc4)nnn3c3ccccc23)c1C	5.2	?	1.4%	?	1.8	10%	18%

Bioassay records from PubChem.
